# T cruzi repl: inhibitors of intracellular T. cruzi growth, primary screen, luminescence, NIH3T3 host cells; T. cruzi beta-gal in NIH3T3, 90 h; inhibition, % (no concentration beside the values); actives 1.4% (n = 300,000); AID 1885, 2009;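 active = mean inhibition across valid replicates above about 55%, limit read from the data; inconclusive = mean below that limit but half or more replicates reach it; inactive = mean below it, under half of replicates reach it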;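 also: signal also drops with host cell toxicity which is not excluded here; 0% = plate median of DMSO wells and 100% = zero luminescence signal; higher percent means less beta-gal luminescence so fewer parasites; stock transfer was 50 nL into about 50 µL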
# Calb FLC: C. albicans growth inhibition with fluconazole, primary screen, CaCi-2 strain, Alamar Blue fluorescence | C. albicans CaCi-2 (fluconazole-resistant clinical isolate) + fluconazole, 48 h | growth inhibition, % (test concentration not listed) | actives 0.57% (n = 300,000);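 active = most replicates above 75%; inconclusive = exactly half above 75%; inactive = most below 75%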;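 also: all wells also contain fluconazole at 8 µg/ml as a sub-toxic cotreatment; 0% = median of DMSO wells and 100% = median of geldanamycin control wells; wells of about 8 µL received 7.5 nL stock; the first replicate is given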
# Vif TR-FRET: inhibitors of Vif binding to APOBEC3G peptide, primary screen, biochemical, TR-FRET, GST-Vif 1-94, biotin-A3G peptide, dose response retest (AID 1117319); actives 0.57% (n = 260,000); TR-FRET GST-Vif / biotin-A3G peptide binding; higher % means a stronger effect; test concentration not given here; strong numbers were not always called active; inhibition, %; hits with a dose series show IC50 in µM;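 active = above the screen mean plus three standard deviations and confirmed in dose response; inconclusive = results disagree or hit not tested in dose response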;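 also: Vif residues 1-94 fused to GST binding biotinylated APOBEC3G peptide 110-148; 0% = full assay without inhibitor and 100% = GST in place of GST-Vif; retest series ran down from 100 µM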
# Ecoli rRNA inh: reduced GFP signal of wild-type E. coli, primary screen, bacterial rRNA inhibitor project, GFP/RFP fluorescence, OD600, single point; actives 1.6% (n = 350,000); E. coli WT GFP vs humanized-ribosome RFP mutants, 24 h; hits give low values; DMSO median 0, no signal -100; GFP signal change (wild-type ribosome), % (no concentration beside the values);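 active = significant combined selectivity score with lowered wild-type GFP, culture density cut under 30%, mutant RFP and density less affected; inactive = any of these conditions unmet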; also: one replicate is shown; some compounds called inactive have numbers as strong as hits
# A1 inh: caspase 3/7 activation in MEF A1-2A-BIM cells, primary screen, A1 inhibitor project, cell-based, luminescence, HTS | Caspase-Glo 3/7 luminescence, 3 h; percent of clofoctol response, vehicle zero | actives 0.066% (n = 330,000) | caspase activation, % (no concentration beside the values) | AID 2462, 2010;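 active = over half of replicate activation scores above 10%, or exactly half above 10 with the replicate mean above 10; inconclusive = replicate mean below 10 yet half the replicates above 10; inactive = over half of replicates below 10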;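 also: wells of about 30 µL received 50 nL stock; many hits fall short of the cut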
# Beta apoptosis: inhibitors of cytokine-induced beta cell apoptosis, primary screen, luminescence; protection from apoptosis, % (no concentration beside the values); actives 0.8% (n = 300,000); AID 435005, 2010; INS-1E cytokine-induced death, ATP luminescence, 48 h; percent of positive-control rescue, neutral wells zero;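 active = all replicates at 75% or more, or half of them and the mean; inconclusive = half reach 75% but not the mean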;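 also: 0% = cytokine-treated negative control wells and 100% = positive control rescue; higher means more ATP so stronger rescue from cytokine killing; wells of about 40 µL received 100 nL stock; the first replicate is given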
# MLL AF4-AF9 inh: inhibitors of AF4 peptide binding to AF9, primary screen, biochemical, AlphaScreen, biotin-AF4 peptide, FLAG-AF9, single point. Protein AF-9 (Homo sapiens), P42568. inhibition, % at 10 µM. actives 0.47% (n = 350,000). AID 651704, 2012;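 active = every replicate reaching a set inhibition limit, whatever the replicate mean, cut at about 25% in these data; inconclusive = mean inhibition reaches that limit but some replicates miss it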;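 also: 0% = plate neutral control median and 100% = total signal loss; the record names both 10 and 1 µM as test concentration; the first replicate is given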
# Target sequence (P42568 whole entry, looked up): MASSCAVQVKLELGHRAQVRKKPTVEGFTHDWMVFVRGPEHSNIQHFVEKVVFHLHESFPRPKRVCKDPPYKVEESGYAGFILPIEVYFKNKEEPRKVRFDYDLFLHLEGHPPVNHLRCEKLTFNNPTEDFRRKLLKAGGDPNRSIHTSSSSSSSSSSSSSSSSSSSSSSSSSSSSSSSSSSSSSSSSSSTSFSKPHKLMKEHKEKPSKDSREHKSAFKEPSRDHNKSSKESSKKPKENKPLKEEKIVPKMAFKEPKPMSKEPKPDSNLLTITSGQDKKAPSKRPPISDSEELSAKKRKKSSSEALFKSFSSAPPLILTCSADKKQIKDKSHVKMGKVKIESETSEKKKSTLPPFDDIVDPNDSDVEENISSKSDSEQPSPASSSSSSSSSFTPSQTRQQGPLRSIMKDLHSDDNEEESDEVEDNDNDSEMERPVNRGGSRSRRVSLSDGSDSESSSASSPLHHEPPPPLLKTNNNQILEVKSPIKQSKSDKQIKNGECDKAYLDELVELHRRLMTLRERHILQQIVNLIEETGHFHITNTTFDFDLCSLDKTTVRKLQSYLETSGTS
# RanGTP-Imp inh: inhibitors of RanGTP-importin-beta interaction, primary screen, biochemical, FRET, CFP-Ran, YFP-importin-beta, homogeneous. Ran GTPase (GTP-bound) - importin-beta complex. cell-free CFP-Ran/YFP-importin-beta FRET ratio. inhibition, % (test concentration not listed). actives 1.1% (n = 300,000). AID 2216, 2009;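 active = most replicates above 15%; inconclusive = exactly half above 15%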;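 also: 0% = DMSO wells and 100% = Ran loaded with GDP instead of GTP; wells of about 40 µL received 100 nL stock; the first replicate is given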
# Ecoli rRNA inh OD600: also measured in Ecoli rRNA inh; calls as there; OD600 change, %; measured here: OD600 growth;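 optical density of the mix in the first replicate; 0 = DMSO median and -100 = no signal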
# Ecoli rRNA inh RFP: further read-out of Ecoli rRNA inh, marked with its call; RFP signal change, %; measured here: RFP humanized mutant strains;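 first replicate; 0 = DMSO median and -100 = no signal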
# An asterisk follows results filed as active; ? = inconclusive; . = not tested or not shown. Only part of the results is shown; count on the stated rates, not on these rows.
smiles	Vif TR-FRET	Calb FLC	Ecoli rRNA inh RFP	A1 inh	T cruzi repl	RanGTP-Imp inh	Ecoli rRNA inh	Ecoli rRNA inh OD600	MLL AF4-AF9 inh	Beta apoptosis
COCCn1c(CN(C)Cc2ccccc2)nc2c1c(=O)n(C)c(=O)n2C	-1%	-3	-4.1	0.4	-8	2.5	-2	5	-8.2	-2
O=C(NN=C(Cc1ccccc1)Cc1ccccc1)c1ccncc1	15%	-19	.	-0.3	-4	1.1	.	.	-2.8	.
CC(C)(C)SCCNC(=O)CN(c1ccc(F)cc1)S(=O)(=O)c1ccccc1	.	?	-9.6	-0.1	-2	0.8	-46	-73	0.7	3
COC(=O)c1cc(C(C)=O)c(C)[nH]c1=O	-1%	-9	17	0.3	5	-0.9	21	12	0.1	-6
Nc1c2c3c(sc2nc(=O)n1N)CCCC3	6%	8	-6.9	0.0	5	-1.6	8	5	-1.0	1
O=C1c2nc3cc(-c4ccco4)[nH]n3c(=O)c2CN1Cc1ccccc1	?	-15	.	0.3	-10	-5.5	.	.	-1.0	-8
CN(CCCN1c2ccccc2CCc2ccccc21)CC(=O)c1ccc(Cl)cc1	.	.	.	0.3	5	0.5	.	.	.	1
CCCCCC(=O)NC(=S)NNC(=O)CC	16%	-31	.	-0.9	-27	0.2	.	.	.	2
O=C(CCS(=O)(=O)c1ccc(Br)cc1)Nc1ccc(Cl)cc1F	.	0	.	0.6	-16	?	.	.	.	4
N#Cc1ccccc1OCC(=O)NNC(=O)CNC(=O)c1ccc(Br)o1	0%	.	2.0	2.0	.	.	7	12	-1.5	-6
N#Cc1c(N)n(Cc2ccccc2)c(=O)c2cc([N+](=O)[O-])ccc12	2%	-3	-2.5	-3.1	57*	2.7	8	13	1.0	-6
CCC1(CC)NC(=O)N(CC(=O)Nc2sc3c(c2C(N)=O)CCC3)C1=O	26%	-7	.	0.9	-3	9.8	.	.	.	2
CC(=O)Nc1cccc(NS(=O)(=O)c2ccccc2[N+](=O)[O-])c1	.	9	-0.8	0.6	-2	1.2	18	5	1.2	-2
N/C(=N\OC(=O)CC1CCCCC1)c1cccnc1	-6%	12	-1.9	-0.5	2	?	1	2	6.9	-2
COc1cccc(N2CCc3c(C)nc4ccc(Cl)cc4c32)c1	-1%	2	7.5	-0.4	19	-0.2	-6	-20	-6.8	17
CCOc1ccc(N2CC(C(=O)NCCc3c[nH]c4ccc(C)cc34)CC2=O)cc1 (centres undefined)	.	-6	5.5	0.0	25	2.4	-4	-12	4.4	4
C/C(CC(=O)Nc1ccc(F)cc1)=N\NC(=O)Cc1csc(N)n1	14%	0	-4.8	0.3	6	5.2	6	12	-0.9	-4
O=C(NC(=S)NC1CCSC1=O)c1ccc([N+](=O)[O-])cc1 (centres undefined)	-6%	1	-1.2	0.7	-10	2.1	5	5	1.5	.
Cc1ccc(N(CC(=O)N/N=C/c2cc(C)n(-c3ccccc3)c2C)S(C)(=O)=O)c(C)c1	9%	-1	.	0.2	.	-0.1	.	.	.	-2
Cc1cccc(Oc2ccc(S(=O)(=O)N3CCCCC3)cc2NC(=O)C2=COCCO2)c1	5%	.	1.5	0.3	.	.	4	-6	3.1	0
CCN1CCN(c2ncc(C(=O)Nc3c(F)cc(F)cc3Br)c3ccccc23)CC1	-2%	-4	.	3.2	15	1.8	.	.	.	-7
CCN(C(=O)CSc1nnnn1-c1ccccc1)C1CCS(=O)(=O)C1 (centres undefined)	-2%	-7	-1.8	0.8	-6	4.4	2	14	-2.1	-3
COc1ccc(CC(=O)O/N=C(\N)c2ccccn2)cc1	-1%	-4	-0.8	-1.4	-7	4.6	3	10	2.3	-6
N#C/C(=N/Nc1ccc(OC(F)(F)F)cc1)C(N)=S	2%	81*	-16	-2.1	-16	0.0	-54	-76	9.3	88*
CCN(CCCNC(=O)COc1cc(=O)n(C)c2ccccc12)c1ccccc1	7%	19	.	0.7	21	-2.7	.	.	.	-4
COc1cccc(/C=N/NC(=O)CNC(=O)C2COc3ccccc3O2)c1O (centres undefined)	-5%	?	2.7*	.	-18	1.4	-20*	4.8*	-1.9	.
Cc1cc(OCCN2CCOCC2)ccc1C(C)C	6%	-2	-0.7	-0.1	16	-1.5	6	-1	-0.1	-2
Cc1cccc(NC(=O)COC(=O)CNC(=O)C2CCCCC2)c1	2%	-4	.	0.4	-5	-2.0	.	.	.	-10
O=S(=O)(c1cccc(Br)c1)N1CCN(C(=S)NCC2CCCO2)CC1 (centres undefined)	5%	1	0.1	0.8	-7	-0.4	4	9	2.3	7
Cc1sc2nc(CN(Cc3ccccc3)C(=O)NC3CCCCC3)[nH]c(=O)c2c1C	.	29	.	-0.3	31	5.6	.	.	.	-9
CN(Cc1ccccc1)c1nc(N)c([N+](=O)[O-])c(Nc2cccc(F)c2)n1	17%	-5	.	-0.8	24	-2.4	.	.	.	4
CCOC(=O)c1ccccc1OCc1cc(/C=N/n2cnnc2)ccc1OC	-2%	102*	.	0.8	-8	-0.8	.	.	.	3
Cc1ccc(NC2OC(CO)C(O)C2O)cc1[N+](=O)[O-] (centres undefined)	23%	-7	.	-0.5	-6	0.1	.	.	.	-14
Cc1c(C=O)c(=O)n(-c2ccccc2)n1-c1ccccc1	.	2	.	0.1	-10	0.1	.	.	.	-10
COc1ccc(C(=O)NNC(=O)CN2CCC(n3nnc4cc(F)ccc43)CC2)cc1	.	-3	-4.2	0.2	-14	-4.7	9	9	-3.9	2
CCC1CN(C(=O)NCc2ccccc2)c2cc(Cl)ccc2O1 (centres undefined)	-6%	5	-5.0	-1.0	4	-0.1	-9	0	2.3	-1
O=C(NCc1ccccn1)Nc1ccccc1	2%	-6	.	0.0	-20	1.1	.	.	0.1	0
O=C(Nc1cccc(F)c1)c1cc(S(=O)(=O)N2CCOCC2)cs1	?	1	-3.3	-1.2	-28	4.4	-18	-19	1.2	4
COc1ccc(S(=O)(=O)c2c(N)n(Cc3ccco3)c3nc4ccccc4nc23)cc1	3.5µM*	-1	.	-0.2	36	?	.	.	.	-10
NCCCn1c(C(=O)c2cc(Cl)c(N)c(Cl)c2)c2ccc(C(F)(F)F)cc2[n+]1[O-]	.	0	28	1.2	7	-0.2	-32	-60	.	2
CCC1CCCCN1C(=O)CN1C(=O)c2ccccc2S1(=O)=O (centres undefined)	5%	-6	-1.3	0.8	-12	1.8	-3	0	0.4	.
CC(=O)Nc1ccc(N(C(=O)Cn2nnc3ccccc32)C(C(=O)NC2CCCC2)c2ccc(O)c(O)c2)cc1 (centres undefined)	22%	-14	8.7	-0.3	-9	4.6	-19	1	4.5	.
COc1ccc(-c2nnc(SCC(=O)Nc3sc4c(c3C#N)CCCC4)n2-c2ccccc2)cc1	1%	-5	-2.0	0.5	-15	5.6	-7	5	0.4	.
Cc1ccc(OCC(=O)NCCCNC(=O)c2ccco2)cc1C	.	-4	-4.6	-0.8	6	-2.4	-6	-14	-2.6	.
COc1ccc(C(C(=O)NCc2ccc(F)cc2)N(Cc2cccnc2)C(=O)c2snc(C(N)=O)c2N)cc1 (centres undefined)	4%	-3	1.6	-0.7	13	?	-5	-3	2.6	-2
Cc1ccccc1-n1c(-c2ccc(=O)[nH]n2)n[nH]c1=S	.	6	-2.0	-0.2	-2	8.5	-10	-16	-5.7	-5
CCN(CC(=O)NCc1cccs1)C(=O)CCOc1ccccc1	-2%	.	4.6	0.5	.	.	7	11	4.3	-6
CC(C(=O)NCc1ccccn1)N1C(=O)c2ccccc2C1=O (centres undefined)	4%	13	.	0.5	-7	-1.4	.	.	.	-1
O=C(Cc1c(F)c(F)c(F)c(F)c1F)OC12CC3CC(C1)C(=O)C(C3)C2	7%	-26	.	-0.4	7	0.3	.	.	.	-2
CCN(c1ccccc1)S(=O)(=O)c1ccc(C(=O)Nc2nnc(COC)o2)cc1	0%	41	.	0.0	-3	3.2	.	.	.	6
CCOC(=O)/C(C#N)=C/C1=C(N2CCCC2)CC(C)(C)OC1	1%	-1	.	0.2	-4	0.3	.	.	.	-9
O=C(Cc1ccc(Br)cc1)Nc1nc2ccccc2[nH]1	0%	3	1.2	0.7	-8	3.3	-4	0	5.7	-6
COCCNC(=O)CCn1nc(-c2ccc(C)cc2)c2ccccc2c1=O	-2%	11	3.5	0.6	-14	-5.7	15	5	1.4	7
O/N=C/c1cc(Br)ccc1OCc1ccccc1F	-2%	3	.	-0.8	5	0.4	.	.	.	-2
N#CCCN(CCC#N)S(=O)(=O)c1ccc(C(=O)Nc2nc(-c3ccccc3)c(C(=O)c3ccccc3)s2)cc1	-59%	13	1.2	-0.2	1	3.2	-2	3	-3.3	0
O=C(COC(=O)c1ccc2ncsc2c1)NCc1ccc(F)cc1	-4%	.	.	0.6	.	.	.	.	0.8	-3
CC(=O)c1cccc(S(=O)(=O)N2CCC(C(=O)OC3CCOC3=O)CC2)c1 (centres undefined)	.	.	1.5	0.4	.	.	8	10	0.9	-4
COc1ccc2nc(/C=N/NC(=O)[C@H](C)NC(=O)OC(C)(C)C)ccc2c1	-5%	0	.	0.0	10	4.3	.	.	.	-3
Clc1cccc(Cl)c1CNCCCSc1ncccn1	6%	-4	-0.8	1.0	31	1.9	-1	7	-0.3	-5
CC(C)Oc1ccccc1OCCCOc1cccc2cccnc12	12%	?	-11	0.0	11	-3.4	-45	-52	0.2	4
CC(Oc1ccc(Br)cc1)C(=O)Nc1ccncc1 (centres undefined)	-1%	-9	-2.3	-0.8	-3	-4.3	-9	-14	2.4	0
CC(OC(=O)c1cc(Br)ccc1O)C(=O)Nc1ccc(S(=O)(=O)N2CCCC2)cc1 (centres undefined)	.	.	-13	-0.5	0	-1.5	-54	-74	-1.1	10
CC(=O)N1CCC(N(CCN2CCOCC2)C(=S)Nc2cc(C)cc(C)c2)CC1	-7%	3	0.6	0.5	-1	2.4	7	1	-4.9	-6

# Screens from PubChem.
